A488 fluor – qHTS Assay for Spectroscopic Profiling in A488 Spectral Region; compound autofluorescence, A488 spectral region, dye equivalency; hits give high values; max dye equivalency, M; 59,000 tested, 0.1% active; AID 591, 2007; active = above 10 nM dye equivalent; inconclusive = 1 to 10 nM; inactive = 1 nM or less; about half of its hits are not listed in these tables;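 further: highest value over a series up to 38 µM; compound alone in buffer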
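Intrinsic compound fluorescence is measured in 100 mM Tris buffer at pH 8.0 following 15 min incubation at room temperature. Intensities at 480 nm excitation/540 nm emission are calibrated to an on-plate A488 concentration series, giving dye-equivalent concentrations.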
TSHR ag – qHTS Assay for Agonists of the Thyroid Stimulating Hormone Receptor; Thyrotropin receptor (Homo sapiens), P16473; HEK293-CNG-TSHR cells (CNG channel as cAMP sensor), membrane potential dye, cAMP; Potency, µM (top dose mostly 57.1 µM), for the others: at the top dose activation, hits mostly activators; 73,000 tested, 0.48% active; active = well fitted activation curve of enough size with the parental cells flat; inconclusive = any curve in the parental cells; inactive = parental cells flat and receptor cells flat or falling; further: potency means the concentration at half of the fitted maximal effect; % of control where 0% means no effect; weak receptor curves with flat parental cells got no call and are not listed
Target sequence (P16473 whole entry, looked up): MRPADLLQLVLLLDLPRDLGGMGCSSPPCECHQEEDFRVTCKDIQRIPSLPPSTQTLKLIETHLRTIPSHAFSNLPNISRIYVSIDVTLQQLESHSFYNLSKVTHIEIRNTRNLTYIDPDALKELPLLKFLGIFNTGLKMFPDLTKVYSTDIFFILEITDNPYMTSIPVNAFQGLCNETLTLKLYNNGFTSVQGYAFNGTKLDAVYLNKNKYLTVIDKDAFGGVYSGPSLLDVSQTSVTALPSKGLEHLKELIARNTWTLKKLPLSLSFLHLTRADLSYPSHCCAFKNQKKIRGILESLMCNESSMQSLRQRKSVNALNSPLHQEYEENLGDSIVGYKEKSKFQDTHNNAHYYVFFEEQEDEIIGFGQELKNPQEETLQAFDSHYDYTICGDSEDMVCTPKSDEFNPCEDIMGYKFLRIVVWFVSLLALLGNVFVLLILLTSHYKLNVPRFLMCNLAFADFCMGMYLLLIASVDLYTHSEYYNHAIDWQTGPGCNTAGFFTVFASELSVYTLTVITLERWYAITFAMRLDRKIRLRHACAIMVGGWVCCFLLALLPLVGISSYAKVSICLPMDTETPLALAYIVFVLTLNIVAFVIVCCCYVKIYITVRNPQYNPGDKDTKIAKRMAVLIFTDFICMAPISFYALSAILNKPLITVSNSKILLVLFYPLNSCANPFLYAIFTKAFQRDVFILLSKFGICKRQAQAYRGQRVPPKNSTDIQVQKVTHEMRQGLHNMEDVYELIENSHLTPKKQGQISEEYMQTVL
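HEK 293 cells stably expressing TSHR and a modified CNG channel, with CNG-only parental cells as counterscreen, were preloaded 60 min at room temperature with membrane potential dye containing 100 uM RO 20-1724. Compound exposure was 30 min, and depolarization was read as fluorescence at 590 nm.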
A647 autofl – qHTS Assay for Spectroscopic Profiling in A647 Spectral Region. Compound fluorescence, A647 channel (570/671 nm), Tris buffer. max dye-equivalent concentration, M. 59,000 tested, under 10 active. AID 592, 2007; active means above 1 µM dye equivalent; inconclusive means 0.1 to 1 µM; inactive means 0.1 µM or less;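 further: values scaled relative to a standard on each plate; highest value over a series up to 38 µM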
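Fluorescence read (570 nm ex, 671 nm em) after 15 min RT incubation of compounds in 100 mM Tris buffer, pH 8.0; values expressed as dye-equivalent concentration against a six-point A647 standard series on each plate.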
Resorufin autofl – qHTS Assay for Spectroscopic Profiling in Resorufin Spectral Region | 59,000 tested, 0.04% active | Compound fluorescence, resorufin region 547/598 nm, buffer; hits give high values | max dye-equivalent concentration, M; active = above 10 nM dye equivalent; inconclusive = 1 to 10 nM; inactive = 1 nM or less; a few of its hits are not listed in these tables; further: highest value over a series up to 38 µM
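Dye-equivalent concentration values derive from comparing each well's 547/598 nm fluorescence against resorufin standards included on every plate. Incubation was 15 min at room temperature in 100 mM Tris, pH 8.0.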
AID923 – qHTS Assay for Allosteric/Competitive Inhibitors of Caspase-1: Spectroscopic Profiling in AFC Spectral Region; AID 923, 2007; 75,000 tested, 1.1% active; compound fluorescence, AFC spectral region (405/520 nm); almost no hit is shown here; Potency, µM (titrated, usually from 57.5 µM), inactives show at the top dose fluorescence increase, actives largely listed as activators; active means well fitted activation curve with a large enough effect; inconclusive means small, poorly fitted or top-dose-only effect;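 further: potency means the concentration at half of the fitted maximal effect; 0% is about no effect; scaled to a free AFC standard on each plate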
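Baseline compound fluorescence (AFC region, 405 nm ex/520 nm em) taken from the intercept of kinetic reads with 50 nM caspase-1 and 5 uM Ac-WEHD-AFC; normalized to an on-plate AFC standard curve; compounds titrated up to 57 uM.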
* hit, by the source's call; i = inactive; u = inconclusive; x = no result given; [ ] = dose if it differs, or a comment.

SMILES	A488 fluor	TSHR ag	A647 autofl	Resorufin autofl	AID923
Cc1ccc(C)c(OCC(=O)Nc2ccc3c(c2)OCO3)c1C	i	u	3.4e-08	i	-0.2%
Cn1c(-c2ccc(F)cc2)cnc1SCC(=O)Nc1ccccc1N1CCOCC1	i	u	1.9e-08	i	-0.6%
CC1CCCCC1NC(=O)Cn1c(CN2CCCCC2)nc2ccccc2c1=O (centres undefined)	i	u	1e-09	i	4.8%
CCc1c(C)sc(NC(=O)c2ccco2)c1C(=O)N1CCOCC1	i	u	1e-09	i	1.4%
CCn1nnnc1NCc1cccn1C	i	u	1.2e-08	i	-0.4%
Cc1ccc(SCc2nnc(N)s2)cc1	i	x	1e-09	i	x
O=C(NCC1CCCO1)c1ccc(CS(=O)(=O)Cc2ccc(F)cc2)o1 (centres undefined)	i	6%	1.3e-08	i	0.4%
CCCCSc1nc(N)c(NC(=O)c2ccco2)c(=O)[nH]1	x	-3%	x	x	4.0%
CCN1CCN(C(c2ccc(OC)c(OC)c2)c2nnnn2C(C)(C)C)CC1 (centres undefined)	i	3%	3.4e-08	i	0.0%
CCOC(=O)Nc1ccc2c(c1)N(C(=O)N(CC)CC)c1ccccc1CC2	x	3.2µM*	x	x	-0.5%
COc1ccc2oc(C(=O)c3ccccc3)c(NC(=O)CN3CCN(C)CC3)c2c1	i	u	2.6e-08	i	2.4%
CCOc1ccccc1OCC(=O)Nc1ccc(S(=O)(=O)N(C)C)cc1	i	4%	1.5e-09	i	1.4%
COc1ccc(Nc2cc(C)nc3ccccc23)cc1	i	x	1e-09	i	x
C=CCn1c(SCC(=O)Nc2nnc(CC)s2)nnc1-c1ccco1	i	-2%	1e-09	i	-0.2%
CCOc1cc(CN2CCN(c3ccc(C(C)=O)cc3)CC2)ccc1OC	x	3%[11.4 µM]	x	x	-0.3%
O=C1[C@H]2[C@H]3[C@H](O)[C@H](O)C/C(=N/OCc4ccccc4)[C@@H]3CC[C@@H]2C(=O)N1C[C@@H]1CCCO1	x	u	x	x	-2.4%[11.5 µM]
Clc1ccc(-c2nc(-c3ccccn3)no2)cc1Cl	x	-3%[11.4 µM]	x	x	1.4%
Fc1cccc(Nc2cc(-n3cccn3)ncn2)c1	i	-22%	4.5e-09	i	-0.1%
CC(=O)NC(Cc1ccccc1)C(=O)NC1CCN(C(=O)c2cnccn2)CC1 (centres undefined)	i	11%	2.4e-08	i	0.5%
O=c1c(C=NCCCn2ccnc2)c(-c2ccccc2)[nH]n1-c1nc2ccccc2s1	i	x	4.1e-08	i	x
CCNc1nc(NCC)nc(N(C)n2cnnc2)n1	i	-1%	1e-09	i	-0.4%
CC(C)c1ccc(NC(=O)C2CCCN(S(=O)(=O)c3cnc[nH]3)C2)cc1 (centres undefined)	x	2%	x	x	-2.7%
O=C(O)Cn1c(C(F)(F)F)nc2ccccc21	i	-3%	1e-09	i	0.0%
COc1ccccc1-c1nc(Nc2ccncc2)c2ccccc2n1	i	7%	1.4e-08	i	3.5%
COCCCNC(=O)CSc1nc2ccc(N3CCOCC3)cc2c(=O)n1CCc1ccccc1	i	x	1.9e-08	i	12%
CC12CCC(C(=O)NC3CCCC3)(CC1=O)C2(C)C (centres undefined)	i	4%	1e-09	i	0.5%
Cc1cc(C)n(-c2ccc(C(=O)Nc3ccc4c(c3)OCCO4)cc2)n1	i	6%	1e-09	i	-0.8%
COc1ccc(OC)c(-c2csc3nnc(SCC(=O)Nc4ccc(NC(C)=O)cc4)n23)c1	i	7%	3.3e-08	i	-0.2%
c1cncc(-c2cncnc2NCc2cccs2)c1	i	5%	1.2e-09	i	1.4%
COc1ccccc1C(=O)Nc1nnn(C)n1	i	0%	1.1e-08	i	2.0%
O=C(NC1CCCCC1)C1CCN(c2cnccn2)CC1	i	-5%	4.3e-09	i	0.0%
O=C(c1ccco1)N1CCN(Cc2cccc(F)c2)CC1	i	1%	1.2e-08	i	1.0%
CCOC(=O)CSc1nnc(-c2ccc(OC)cc2)n1CC	i	5%	2.8e-08	i	0.6%
CCc1cc2c(N3CCCCC3)ncnc2s1	i	u	1e-09	i	-0.1%
c1ccc(CCNc2ncnc3c2nnn3Cc2ccccc2)cc1	i	6%	2.6e-09	i	0.4%
Cc1ccccc1-n1nc(-c2ccc(N)cc2)cc1N	x	-11%	x	x	2.5%
CC[C@H]1C2=C3C(CC[C@H]4C(OC)OC[C@](C)([C@@H]34)N(C(=O)OC(C)(C)C)C2)C(CO)C1CO (some centres undefined)	x	2%	x	x	0.4%
COc1ccccc1CNC(=O)CCCNS(=O)(=O)c1cccc2nsnc12	i	-1%	1e-09	i	5.2%
Cc1ccc(-c2ccc(=O)n(CC(=O)NCCN3C(C)CCCC3C)n2)cc1 (centres undefined)	i	13%	3.1e-08	i	-0.6%
O=C(CSC1=NCCS1)N1CCCC1	i	2%	2.5e-08	i	-1.8%
COC(=O)[C@@]1(Cc2ccc(F)cc2)[C@H]2c3cc(C(=O)N4CCCC4)n(Cc4ccc(Cl)c(C(F)(F)F)c4)c3C[C@H]2CN1C(=O)c1ccccc1	x	u	x	x	3.5%
COc1ccc(CCNC(=O)c2oc3ccc(S(=O)(=O)N4CCOCC4)cc3c2C)cc1OC	i	9%[11.4 µM]	2.2e-08	i	0.6%
CC(=O)OC12CC3CC(C1)C(=NO)C(C3)C2	i	x	1e-09	i	x
CCC12C=C(/C=C/c3ccccc3)C(CC)(C1)C(c1ccccc1)CC2=O (centres undefined)	x	11%[11.4 µM]	x	x	-2.0%[11.5 µM]
O=C(CCCOc1ccccc1)N1CCc2ccccc2C1	i	x	1e-09	i	0.2%
CCOC(=O)N1CCN(C(=O)c2ccc(N3CCCC3=O)cc2)CC1	i	6%	1e-09	i	3.3%
NCc1ccc(C(=O)O)cc1	i	-5%[11.4 µM]	1e-08	i	0.6%[11.5 µM]
OC1(c2cccc(C(F)(F)F)c2)CCN(c2ncnc3c2[nH]c2ccccc23)CC1	i	x	3.2e-08	i	x
CN(CC(=O)O)S(=O)(=O)c1cccs1	i	20%	5.9e-09	i	-0.5%
N#Cc1ccc(CN2CC3(CCN(C(=O)c4cnccn4)CC3)C2)cc1	i	-1%	5.2e-09	i	-1.3%
C=CCn1c(-c2c[nH]c3ccccc23)n[nH]c1=S	i	-3%	1.7e-09	i	0.1%
CCc1ccccc1OCCCCN1CCCC1	i	28%	1.5e-09	i	0.6%
CC(C)N1C(=O)CCC1C(=O)N1CCN(c2ccccn2)CC1 (centres undefined)	x	1%	x	x	-1.5%
CCOC(=O)C1=C(N)OC2=C(C(=O)CCC2)C1c1ccco1 (centres undefined)	i	u	1.7e-08	i	2.6%
Cc1ncc[nH]1	x	-9%	x	x	-2.1%
Oc1c(CN2CCN(c3ccccc3)CC2)cc(Br)c2cccnc12	i	-10%[11.4 µM]	1e-09	i	0.0%[11.5 µM]
Cc1ccc(-c2cc(C(=O)Nc3c(C)n(C)n(-c4ccccc4)c3=O)[nH]n2)c(O)c1	i	x	8.7e-09	i	-1.8%
Nc1ccc([N+](=O)[O-])cc1O	x	-6%	x	x	5.0%
CCS(=O)(=O)N1CCC(NC(=O)c2ccco2)CC1	i	0%	8.6e-09	i	-1.1%
COC(=O)CN1C(=O)C2(OCCCO2)c2ccccc21	i	-4%	1e-09	i	0.2%

The closing 6 entries of the section before open the next one.
SMILES	A488 fluor	TSHR ag	A647 autofl	Resorufin autofl	AID923
Cc1ncc[nH]1	x	-9%	x	x	-2.1%
Oc1c(CN2CCN(c3ccccc3)CC2)cc(Br)c2cccnc12	i	-10%[11.4 µM]	1e-09	i	0.0%[11.5 µM]
Cc1ccc(-c2cc(C(=O)Nc3c(C)n(C)n(-c4ccccc4)c3=O)[nH]n2)c(O)c1	i	x	8.7e-09	i	-1.8%
Nc1ccc([N+](=O)[O-])cc1O	x	-6%	x	x	5.0%
CCS(=O)(=O)N1CCC(NC(=O)c2ccco2)CC1	i	0%	8.6e-09	i	-1.1%
COC(=O)CN1C(=O)C2(OCCCO2)c2ccccc21	i	-4%	1e-09	i	0.2%
CCCSC1=C(C#N)C(c2ccccc2C)C(C(=O)OC)C(=O)N1 (centres undefined)	i	7%	5.8e-08	i	0.6%
O=C(O)c1cccc2[nH]c(C(F)(F)F)nc12	i	-5%	1e-09	i	-0.1%
N#CCc1ccc(NS(=O)(=O)c2ccc(N3CCCC3=O)cc2)cc1	x	u	x	x	-2.4%
Cc1nc(C)c(C(=O)Nc2nc3c(C)cccc3s2)o1	i	1%	2.9e-08	i	4.8%
Clc1ccc(C(c2nnnn2C2CCCC2)N2CCN(Cc3ccncc3)CC2)cc1 (centres undefined)	i	5%	7.6e-09	i	0.2%
O=C(Cc1ncn[nH]1)NCCc1ccccc1	x	-6%	x	x	-0.5%
NC(=O)c1cc(Br)cc2c3c([nH]c12)CCCC3	i	-13%	4e-08	i	6.0%
CCOC(=O)c1cc(-c2ccccc2)n(CC(=O)N2CCCC2)c1C	i	4%	2.9e-08	i	1.0%
CC1C(c2ccccc2)=[N+]([O-])C2(CCCC2)N1O (centres undefined)	x	6%	x	x	-0.5%
COC(=O)c1ccccc1NC(=O)Nc1nnc(N2CCCCC2C)s1 (centres undefined)	x	-1%	x	x	1.9%
O=C(Nc1cccnc1)Nc1ccc(Br)cc1Cl	i	-5%	1.9e-08	i	-1.8%
CC1CCCCN1Cc1nc2c(c(=O)n(C)c(=O)n2C)n1CCCc1ccccc1 (centres undefined)	i	u	4.1e-08	i	-0.7%
CC(C)Cn1nc(NC(=O)C(C)(C)C)c2cc3ccccc3nc21	i	x	1e-09	i	x
COc1ccc(CN(C(=O)c2snc(C(N)=O)c2N)C(C(=O)NC(C)(C)C)c2ccco2)cc1 (centres undefined)	i	x	2.9e-08	i	2.1%
CCOc1ccc(C2CC(c3cccc(OC)c3)Nc3nc(N)nn32)cc1 (centres undefined)	x	7%	x	x	-0.7%
CC1(C)OC(C(N)=O)C(C(N)=O)O1 (centres undefined)	i	-3%	1.7e-08	i	0.8%
COc1cccc(C(=O)NCc2ccccc2OC)c1	x	13%	x	x	-0.9%
COc1ccc(-n2c(CNC(=O)c3ccc(S(=O)(=O)N4CCCC4)cc3)n[nH]c2=S)cc1	i	u	2.5e-08	i	0.7%
Cc1c(C(=O)NC2CCCCC2)oc2c1C(=O)CC(C)(C)C2	i	22%	1e-09	i	-0.4%
O=C(Cc1c(C(=O)O)[nH]c2ccccc12)NCCN1CCN(c2cccc(Cl)c2)CC1	i	3%	3.7e-08	i	-0.6%
O=C(O)c1cccc(N2CCCC2)c1	i	-5%	1e-09	i	2.8%
CC(C)c1ccc(-c2nnn(CCC(=O)O)n2)cc1	i	-4%	2.5e-08	i	-1.8%
CCOc1ccc(S(=O)(=O)N(CC(=O)O)c2ccc(C)cc2)cc1	i	14%	2e-08	i	-0.4%
Nc1nc(-c2ccccc2)nn1C(=O)Cc1ccccc1	i	10%	2.3e-08	i	1.1%
Cn1c(SCC(=O)NC2CCCCCC2)nnc1-c1cccs1	i	8%	5.5e-09	i	-1.1%
CC1CCc2cc(F)cc3c(O)c(C(=O)NCC4CCCO4)c(=O)n1c23 (centres undefined)	i	x	1e-09	i	x
O=C(O)c1ncc(-c2ccccc2)cn1	x	3%	x	x	1.0%
O=S(=O)(NC1CCCCCC1)c1cccc2cccnc12	i	15%	4.9e-09	i	3.1%
CSC(=NS(=O)(=O)c1ccc(C)cc1)SC	x	-2%	x	x	-2.1%
CC(C)NC(=O)c1c(O)c2ccccc2[nH]c1=O	i	-29%	2.4e-08	i	0.9%

Screening results (PubChem)

Only part of the results is shown; rates above refer to the full screens.
